KSHV LANA nucl: inhibitors of KSHV LANA-nucleosome binding, primary screen, biochemical, fluorescence polarization, FITC-LANA1-23, chicken nucleosomes | FITC-LANA1-23 / chicken nucleosome fluorescence polarization; active compounds read low | z-score (concentration not given with the values) | actives 0.3% (n = 51,000) | AID 720717, 2013;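 active = both repeat wells score below -2 in polarization z-score versus plate sample wells, excluding overly bright wells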;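 also: 100 nL library stock added to about 30 µL; numbers are from one replicate; some results filed as inactive read as strong as hits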
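Assay system: purified chicken nucleosomes with FITC-labelled LANA N-terminal peptide (1-23) / Probe or stimulus: 50 nM FITC-LANA1-23 probe / Compound dosing: pin-transferred compound, 100 nL / Times: compound with peptide–nucleosome mix 10–45 min at room temperature / Technique: fluorescence polarization, 480 nm excitation, 535 nm parallel and perpendicular emission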
Ab BasE inh: BasE siderophore enzyme inhibitors, primary screen, biochemical, Acinetobacter baumannii ATCC 17978, fluorescence polarization | inhibition, % (test concentration not listed) | purified BasE, fluorescence polarization binding displacement | actives 0.1% (n = 84,000);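 active = both replicates above 25% with normal brightness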;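 also: 0% = negative plate control signal and 100% = positive plate control signal; stock transfer was 100 nL into about 30 µL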
Starred values were filed as active, the others as inactive; / = no result given; & = joins results of further samples.

SMILES | KSHV LANA nucl | Ab BasE inh
Cc1ccc(C)c(N2N=C(C(=O)OCn3nnc4ccccc4c3=O)CCC2=O)c1 | / | 3.0
C/C(=N\NC(=O)COc1cccc(C)c1)c1ccco1 | 1.1 | 0.1
O=C(OCCCOc1ccc(F)cc1)c1ccc(-n2cnnn2)cc1 | / | 1.8
COc1ccc(NS(=O)(=O)c2cc(OC)ccc2NC(=O)c2cc(C)oc2C)cc1 | / | -1.0
O=c1c(NCCC2=CCCCC2)nccn1-c1ccccc1 | 1.9 | -5.2
N#CCCN(Cc1ccccc1)C(=O)Nc1ccccc1 | / | 2.4
CCN1/C(=C2/SC(=S)N(N)C2=O)Sc2ccccc21 | 0.8 | -2.0
Cc1ccc(S(=O)(=O)CC(=O)N2CCCC2)cc1 | -0.44 | 2.0
O=C(COC(=O)c1cc(-c2ccccc2)nc2ccccc12)NCc1ccco1 | / | 1.4
CNC(=O)c1c(NC(=O)CC2SC(=O)NC2=O)sc2c1CCCC2 (stereo not given) | 0.73 | 1.2
Cc1cnc(C(=O)OCc2csc(-c3ccccc3)n2)cn1 | / | -0.2
S=C(N/N=C/c1cccs1)N/N=C/c1cccs1 | -0.47 | 0.8
O=C(COCc1cc(-c2ccco2)on1)Nc1cccnc1 | -0.16 | 19
Cc1ccc(-n2cnc3cc(N=Cc4nc5ccccc5n4C)ccc32)cc1 | 0.55 | -0.4
CSc1ccc(CNCc2ccncc2)cc1 | -0.25 | -1.0
O=C(/C=C/OC(=O)c1ccc(Cl)cc1)c1ccc(Cl)cc1 | / | -0.8
CN(Cc1ccc(Cl)c(Cl)c1)Cn1nnc2ccccc2c1=O | / | -7.2
NNC(=O)c1ccccc1S(N)(=O)=O | / | 1.0
O=C(O)c1cn(-c2ccccc2)nc1/C(=N\O)c1ccccc1 | / | 1.3
O=C(CSc1ncnc2ccccc12)c1ccccc1 | / | 1.8
O=C(O)/C=C/c1ccc(S(=O)(=O)N(CCO)CCO)cc1 | 1.5 | 1.2
CCOC(=O)N1C(=O)c2ccccc2NC1(C(F)(F)F)C(F)(F)F | / | 1.3
CCOC(=O)Cc1nn(CC)c(=O)c2ccccc12 | -0.28 | 1.4
COc1ccc(C2=Nn3c([n+](C)c4ccccc43)SC2)cc1 | -0.2 | -6.8
COc1ccc(/C=C2\C(=O)Nc3ccccc32)c(OC)c1 | / | 1.8
O=C(O)C1C2C=CC(O2)C1C(=O)N1CCOCC1 (stereo not given) | 0.14 | 2.5
c1ccc2c(c1)CCCN2c1nc(N2CCOCC2)nc(N2CCOCC2)n1 | 1.8 | -0.2
CCNc1sc2c(O)cc(=O)[nH]c2c1C#N | -0.42 | 0.2
CN(C)C1=NC(C(F)(F)F)(C(F)(F)F)N=C(c2cccnc2)O1 | -0.23 | 0.2
CC(=O)N(C(C)=O)c1ccc(C)cc1 | 0.14 | 0.4
CSc1nnc2nc(C)cc(C)n12 | / | -0.8
CN(C)Cc1ccccc1CN | / | -0.6
CCC(=O)/C=C1/Sc2ccc(C)cc2N1CC | 0.39 | -0.5
Cc1c(C(=O)O)sc2ncnc(N3CCCC3)c12 | -0.43 | 0.8
COc1nc(N(C)C)nc(N(C)C)n1 | -0.56 | -0.8
O=C1c2ccccc2C(Nc2ccc(S(=O)(=O)N3CCCCC3)cc2)N1Cc1ccco1 (stereo not given) | 0.43 | 0.0
Cc1ccc(S(=O)(=O)NC(=O)N2CCCN(C(=O)OC(C)(C)C)CC2)cc1 | / | 0.6
COCc1c(C(=O)OCC(=O)c2ccc(OC(F)F)cc2)oc2ccccc12 | / | 1.3
Cc1ccc2nc(SCc3nc4cccc(C)n4c3Br)[nH]c2c1 | / | 0.5
Cc1cc(C(=O)NC(C)C2CCCO2)c(C)o1 (stereo not given) | -1.1 | 0.0
Nc1cc(=O)[nH]c(SCc2nc(-c3cccs3)no2)n1 | 0.28 | 1.4
COc1ccc(C(CC(=O)N2CCOCC2)c2ccc(F)cc2)cc1 (stereo not given) | -0.77 | -0.3
Cc1ccc(S(=O)(=O)Nc2ccc(-c3nnc4n3CCCCC4)cc2)cc1C | / | 0.2
CN(C)Cc1ccccc1CNC(=O)CC1C=CCC1 (stereo not given) | / | 0.0
CCOC(=O)NC(c1ccccc1F)C1CCc2ccccc2C1=O (stereo not given) | -0.88 | /
O=C(O)c1ccc(/C=N/O)cc1 | / | 0.4
Cc1c2ccc(Cl)cc2s[n+]1C | -1.7 | 0.1
N#Cc1cc(-c2ccccc2C(F)(F)F)no1 | 0.084 | 2.6

In the list so far, four contain two or more sulfur atoms.
SMILES | KSHV LANA nucl | Ab BasE inh
CCN1/C(=C2/SC(=S)N(N)C2=O)Sc2ccccc21 | 0.8 | -2.0
CNC(=O)c1c(NC(=O)CC2SC(=O)NC2=O)sc2c1CCCC2 (stereo not given) | 0.73 | 1.2
S=C(N/N=C/c1cccs1)N/N=C/c1cccs1 | -0.47 | 0.8
Nc1cc(=O)[nH]c(SCc2nc(-c3cccs3)no2)n1 | 0.28 | 1.4

Other results follow:
SMILES | KSHV LANA nucl | Ab BasE inh
Cc1c(Cc2ccccc2)c(=O)oc2cc(OC(=O)c3ccco3)ccc12 | -0.47 | 3.7
CC(C)(C)NC(=O)CSc1nc2[nH]c(=O)cc(O)c2s1 | -1.1 | /
COC(=O)CCNc1ccc2ccccc2c1 | -1.2 | 1.5
NNC(=O)COc1c(Br)cc(Br)c2cccnc12 | / | -2.1
CCCN(CC(=O)Nc1ccccc1C)C(=O)c1cn2ccccc2n1 | / | 2.1
CCOC(=O)c1cc(C)n(CC2CCC(C(=O)NCc3ccco3)CC2)c1C (stereo not given) | 0.96 | 0.0
Clc1cccc(Oc2cnc3ccccc3n2)c1 | -0.84 | /
CN(C(=O)CSc1ncn[nH]1)C1(C#N)CCCCC1 | / | 0.7
CS(=O)(=O)N1C(=O)CCC1=O | -0.42 | 1.5
O=C(O)CC(=O)N1CCSc2ccccc21 | 0.25 | 0.8
CCc1nc2ccc(C(=O)N3CC(C)CC(C)C3)cc2nc1CC (stereo not given) | -1.7 | 1.8
Cc1[nH]c2ccccc2c1/C=N/n1c(-c2cc3ccccc3o2)csc1=NC1CC1 | / | 0.1
O=C(Nc1ccc2ncccc2c1)c1ccccc1 | 0.18 | -1.9
O=C(NN=C1CCCC1)c1ccccc1NS(=O)(=O)c1cccs1 | / | 0.5
COc1ccc(-n2c(O)c(/C=N/c3ncn[nH]3)c3ccccc3c2=O)cc1OC | / | -1.2
CCCCc1nc(-c2ccc(OCC)c(OC)c2)no1 | 1.9 | -7.5
CCOC(=O)N1CCN(c2ccc(Cl)c(Cl)c2)CC1 | 0.36 | -0.5
C=CCSC1=N/C(=C\C=C\c2ccco2)C(=O)S1 | -0.28 | -1.6
O=C(/C=C/c1ccc2ccccc2n1)NCC(F)(F)F | / | -11
Cc1ccc2c(CC(=O)NC(C)C)coc2c1C | -1.3 | -1.2
O/N=C/c1cccn1-c1ccc(Br)cc1 | 0.8 | /
O=C(/C=C/c1ccccc1)NCC1CCCO1 (stereo not given) | 0.29 | -1.6
Cc1cnc(=O)[nH]c1SCc1ccc(Cl)cc1 | 0.77 | 0.8
CN1CCN(C(=O)c2cc(N3CCCCC3)ccc2N)CC1 | 1.3 | 0.1
O=C(O)CN(CC(=O)O)Cc1cc2c(-c3ccccc3C(=O)O)c3cc(CN(CC(=O)O)CC(=O)O)c(=O)cc-3oc2cc1O | 3.6 | 16
Cc1ccccc1S(=O)(=O)Nc1nc2ccccc2nc1NCCO | / | -1.4
O=C1N/C(=C/c2ccco2)C(=O)N1c1cccc(Cl)c1 | -0.27 | -2.9
O=c1c2c3c(sc2ncn1CCn1cnc2sc4c(c2c1=O)CCCC4)CCCC3 | -0.62 | 0.0
Oc1ccccc1N1CCN(CCOc2ccc(Cl)cc2Cl)CC1 | / | 0.1
Cc1nn(-c2ccccc2)c(Cl)c1C(N)=O | -0.7 | 0.9
CC1Cc2ccccc2N1C(=O)c1cc2sccc2n1Cc1ccc(F)cc1 (stereo not given) | -0.19 | -3.2
Cc1cc(Cl)c(S(=O)(=O)N2CCSCC2)cc1OCC(N)=O | 1.1 | 0.8
O=C1C=CC(=O)N1c1ccc(Br)cc1 | 0.018 | /
O=S1(=O)C=CC(Nc2ccccc2Cl)C1 (stereo not given) | 0.27 | -1.2
CCOC(=O)c1c(C)[nH]c(C)c1C(=O)COC(=O)C1CC(=O)N(CCc2ccccc2)C1 (stereo not given) | / | 2.6
C/C=N/N(c1ccccc1)c1ccccc1 | -0.46 | 0.1
O=C(NCCc1ccccc1)c1cnc2sccn2c1=O | -0.87 | -0.5
CCN1C(=O)N(C)C2C1N(C)C(=O)N2CC (stereo not given) | -0.71 | 0.6
Clc1ccc(Nc2nc(Nc3cccc(Cl)c3)nc(N3CCOCC3)n2)cc1 | 2.1 | 0.1
Cc1cc(=O)oc(C)c1C(=O)OCC(=O)c1ccc(Cl)c(Cl)c1 | / | 3.4
CC(C)c1ccccc1NS(=O)(=O)N(C)C | 2.1 | -3.7
COc1cc(C(=O)Nc2ccc3nc(N4CCN(c5ncccn5)CC4)cc(C)c3c2)cc(OC)c1OC | 1.3 | -3.4
CSc1c2c(c(C#N)c3nc4ccccc4n13)CCCC2 | / | 2.3
O=C(NCC1COc2ccccc2O1)c1ccc2c(c1)OCO2 (stereo not given) | / | -1.8
c1ccc(-c2nc3ccccc3o2)c(-c2nc3ccccc3o2)c1 | 0.38 | 1.5
CCNc1nnc(-c2nn(CC(C)C)c(=O)c3ccccc23)s1 | / | 1.4
Cc1cc(C)nc(N/C(=N/S(=O)(=O)c2ccccc2)Nc2ccccc2)n1 | 0.16 | 0.4
CC1(C)S[C@@H]2[C@H](NC(=O)[C@H](N)c3ccccc3)C(=O)N2[C@H]1C(=O)OC1OC(=O)c2ccccc21 (stereo not given in full) | -1.4 | -1.7
CN1CCOC(=O)/C1=N\Nc1cc(Cl)ccc1Cl | / | -1.8
Cc1cc(C)c(C#N)c(SCCCCSc2nc(C)cc(C)c2C#N)n1 | 0.51 | 1.7
C=C1C(c2ccc(C)cc2)=CCc2cc(C)cc(C)c21 | -0.23 | 3.8
CC(C)(C#N)c1cc(Cn2cncn2)cc(C(C)(C)C#N)c1 | -0.25&0.84 | /
Cc1nn(-c2ccccc2)c(N2CCCC2)c1/C=N/OCC(=O)Nc1ccc(F)cc1F | / | -0.2
COC(=O)c1ccc(Oc2nc(Nc3cccc(C)c3C)nc(N3CCC(C)CC3)n2)cc1 | / | 0.9
COC(=O)c1ccc(S(=O)(=O)N2CCC(c3nc4ccccc4s3)CC2)cc1 | -0.46 | 0.8
CN(C)c1ccc(/C=C2\N=C(c3ccc(Br)o3)OC2=O)cc1 | 7.4 | -27
CCN(Cc1ccc2c(c1)OCCO2)C(=O)c1ccc(-n2cccn2)cc1 | / | -0.6
Cc1ccc2c(NC(=O)C(C)(C)C)cccc2n1 | 0.71 | -0.7
CC(SCc1ccccc1)C(=O)Nc1ccccc1 (stereo not given) | -0.82 | -0.2
CCO/C=C1/C(=O)N(C)C(=O)c2ccccc21 | / | 1.7

A different layout for five compounds above:
Below each SMILES: KSHV LANA nucl | Ab BasE inh
CC1(C)S[C@@H]2[C@H](NC(=O)[C@H](N)c3ccccc3)C(=O)N2[C@H]1C(=O)OC1OC(=O)c2ccccc21 (stereo not given in full)
 : -1.4 | -1.7
NNC(=O)COc1c(Br)cc(Br)c2cccnc12
 : / | -2.1
COc1cc(C(=O)Nc2ccc3nc(N4CCN(c5ncccn5)CC4)cc(C)c3c2)cc(OC)c1OC
 : 1.3 | -3.4
CCc1nc2ccc(C(=O)N3CC(C)CC(C)C3)cc2nc1CC (stereo not given)
 : -1.7 | 1.8
COc1nc(N(C)C)nc(N(C)C)n1
 : -0.56 | -0.8

(more compounds)
SMILES | KSHV LANA nucl | Ab BasE inh
CCN(CC)S(=O)(=O)c1cccc(-c2nn(CN(CCC#N)Cc3cccnc3)c(=S)n2CC(C)C)c1 | / | -0.5
Cc1nc2sccn2c1-c1nc(-c2ccccc2)c(C(=O)c2ccc3c(c2)NC(=O)CO3)s1 | / | -0.2
Cc1cc2ncn(Cc3nc(-c4cccc(Br)c4)no3)c2cc1C | / | -0.3
CCOC(=O)c1c(C)oc2c1C1=NC(CC)CN1C=N2 (stereo not given) | -1.1 | 0.9
Cc1ccc(NC(=O)C2CC(=O)n3ncnc3N2)cc1C (stereo not given) | 0.069 | -1.7
COCn1cnc2ccccc21 | / | 3.2
OCc1ccc(OCc2cccs2)cc1 | 0.65 | 0.8
Cc1ccc(-n2ncc3c(=O)[nH]c(SCC(=O)Nc4ccc5c(c4)OCO5)nc32)cc1C | -0.98 | 1.5
O=C(NCc1cccs1)c1cnn2cc(Br)cnc12 | -0.43 | 0.5
CSc1nsc(SC)c1C(=O)NC(=O)N1CCOCC1 | 0.005 | -2.7
O=C(Cc1ccc2c(c1)OCCO2)N1CCN(C(=O)C2CCCO2)CC1 (stereo not given) | / | 1.2
N#CCCn1c2c(ccc1=O)CCCC2 | / | 0.8
Cc1ccc(-n2nc(C)cc2C)nn1 | -0.048 | 1.7
C=CCn1c(COc2ccc(CC)cc2)nnc1SCc1nc2sc(C)c(C)c2c(=O)[nH]1 | / | -1.0
Cc1ccccc1-n1cc[nH]c1=S | / | 1.5

Not all compounds are listed; rates above refer to the full screens.
